# Ecoli rRNA inh = inhibitors of bacterial rRNA selective over humanized ribosomes; E. coli WT GFP vs humanized-ribosome RFP mutants, fluorescence, 24 h; hits give low values; DMSO median 0, no signal -100; 350,000 tested, 1.6% active; GFP signal change (wild-type ribosome), % (no concentration beside the values);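 active = significant combined selectivity score with lowered wild-type GFP, culture density cut under 30%, mutant RFP and density less affected; inactive = any of these conditions unmet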; also: one replicate is shown; some compounds called inactive have numbers as strong as hits
# MLL AF4-AF9 inh = MLL-AF4/AF9 protein interaction inhibition; inhibition, % at 10 µM; P42568; AlphaScreen, biotin-AF4 peptide binding to FLAG-AF9; 350,000 tested, 0.47% active;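 active = every replicate reaching a set inhibition limit, whatever the replicate mean, cut at about 25% in these data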;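 also: 0% = plate neutral control median and 100% = total signal loss; the record names both 10 and 1 µM as test concentration; the first replicate is given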
# Target sequence (P42568 whole entry, looked up): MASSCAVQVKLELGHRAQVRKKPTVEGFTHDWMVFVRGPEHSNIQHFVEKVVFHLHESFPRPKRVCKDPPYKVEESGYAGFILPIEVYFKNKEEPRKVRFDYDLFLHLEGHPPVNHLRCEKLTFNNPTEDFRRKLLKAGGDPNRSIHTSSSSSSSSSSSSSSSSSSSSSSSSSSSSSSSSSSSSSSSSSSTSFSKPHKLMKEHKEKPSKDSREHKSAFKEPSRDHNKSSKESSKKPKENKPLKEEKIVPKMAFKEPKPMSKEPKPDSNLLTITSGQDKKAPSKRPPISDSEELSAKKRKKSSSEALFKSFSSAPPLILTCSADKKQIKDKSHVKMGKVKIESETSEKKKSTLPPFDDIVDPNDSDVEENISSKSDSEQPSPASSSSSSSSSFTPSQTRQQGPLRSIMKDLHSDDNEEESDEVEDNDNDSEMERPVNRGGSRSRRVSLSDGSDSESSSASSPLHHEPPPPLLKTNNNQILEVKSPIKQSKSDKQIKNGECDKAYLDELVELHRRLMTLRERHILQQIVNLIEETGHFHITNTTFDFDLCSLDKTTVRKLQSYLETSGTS
# Ecoli rRNA inh OD600 = further read-out of Ecoli rRNA inh, marked with its call; OD600 change, %; measured here: OD600 growth;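 optical density of the mix in the first replicate; 0 = DMSO median and -100 = no signal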
# Ecoli rRNA inh RFP = second read-out of Ecoli rRNA inh, no call of its own (marks repeat the call); RFP signal change, %; measured here: RFP humanized mutant strains;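 first replicate; 0 = DMSO median and -100 = no signal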
# Starred values were filed as active, the others as inactive. Not all compounds are listed; count on the stated rates, not on these rows.
SMILES,Ecoli rRNA inh,Ecoli rRNA inh OD600,Ecoli rRNA inh RFP,MLL AF4-AF9 inh
N#C[C@H]1[C@H](c2ccc(C#Cc3cccc(F)c3)cc2)[C@@H](CO)N1C(=O)C1CC1,1.1,2.5,0.9,-2.7
O=C(NCc1cccnc1)c1cc(C2CCCCN2C(=O)c2cccs2)on1 (configuration not stated),16.9,14.1,-0.4,0.8
CCOC(=O)N1CCN(C(=O)C[C@@H]2C[C@@]3(C(=O)OC)CCCCC=C3N(Cc3ccco3)C2=O)CC1,12.6,17.0,1.2,-1.8
CC1(C(=O)NS(=O)(=O)c2ccccc2Cl)CCN1C(=O)CCc1ccc(Cl)cc1Cl (configuration not stated),-9.3,-4.0,-1.0,-0.6
N#C[C@@H]1[C@H](c2ccccc2-c2cccc(F)c2)[C@H](CO)N1C(=O)CN1CCOCC1,6.7,21.1,6.4,-2.6
COc1ccc(S(=O)(=O)N(C)C[C@@H]2OCc3ccccc3-c3c(n(C)c4ccccc34)C(=O)N([C@@H](C)CO)C[C@H]2C)cc1,-0.1,0.7,3.0,2.1
Cc1cc(C(=O)Nc2ccc3c(c2)C(=O)N(C)[C@@H]2CC[C@H](CC(=O)N[C@H](C)c4ccccc4)O[C@@H]2CO3)no1,0.6,0.9,0.0,-1.0
C[C@@H]1CN([C@@H](C)CO)C(=O)c2cc(NC(=O)Nc3ccc(F)cc3)ccc2O[C@@H]1CN(C)C(=O)Nc1cccc2ccccc12,-1.5,-5.1,-1.7,-0.3
O=C([C@H]1[C@H](CO)[C@H]2Cn3c(ccc(-c4ccncc4)c3=O)[C@@H]1N2Cc1cccnc1)N1CCOCC1,2.0,8.2,0.6,-1.1
CO[C@H]1CN(C)C(=O)c2cc(NS(=O)(=O)c3ccccc3Cl)ccc2OC[C@@H](C)NC[C@H]1C,1.8,0.6,-2.8,-1.7
CCCCNC(=O)C1(C)CCN1C(=O)c1ccc(OC)c(C(F)(F)F)c1 (configuration not stated),-5.8,-12.4,-15.6,-5.0
COCC#Cc1ccc([C@@H]2[C@@H](CO)N3C(=O)CN(C(=O)C4CCCC4)C[C@@H]23)cc1,5.5,11.0,-5.2,-13.3
Cc1noc(C)c1NC(=O)N(C)C[C@H]1Oc2ccc(NC(=O)Nc3ccc(C(F)(F)F)cc3)cc2CC(=O)N([C@@H](C)CO)C[C@H]1C,-6.1,-12.2,0.9,-1.7
COc1ccc(CN(C)C[C@@H]2Oc3c(NC(=O)Nc4cccc5ccccc45)cccc3C(=O)N([C@@H](C)CO)C[C@@H]2C)cc1,2.5,-8.2,1.5,11.4
O=C(CC(F)(F)F)N1C[C@H]2[C@@H](c3ccccc31)[C@H](CO)N2Cc1cccnc1,5.5,5.2,2.2,-1.1
Cc1noc(C)c1NC(=O)Nc1ccc2c(c1)C(=O)N([C@H](C)CO)C[C@H](C)[C@@H](CN(C)S(=O)(=O)c1ccccc1)OCCCC[C@@H](C)O2,1.0,5.8,-0.6,-2.1
C/C=C/c1ccc2c(c1)O[C@H](CN(C)C(=O)CN1CCOCC1)[C@@H](C)CN([C@H](C)CO)S2(=O)=O,-0.4,1.3,-1.7,0.0
C[C@@H]1CN([C@H](C)CO)C(=O)Cc2cc(NS(C)(=O)=O)ccc2O[C@H]1CN(C)C(=O)Nc1ccc2c(c1)OCO2,0.0,4.0,-0.5,-5.3
C[C@H]1CN([C@@H](C)CO)C(=O)Cc2cc(NS(C)(=O)=O)ccc2O[C@@H]1CN(C)Cc1ccc(C(=O)O)cc1,2.5,0.4,-2.9,-1.8
Cn1cnc(S(=O)(=O)N2CC[C@H]3[C@H](CO)Nc4ccc(-c5cccc(F)c5)cc4[C@H]32)c1,-3.6,0.6,1.2,4.9
CC1=CC(=NOS(=O)(=O)c2ccc(C)cc2)CC(C)(C)C1,9.2,11.8,-0.1,-2.5
C[C@@H]1CCCCO[C@@H](CN(C)CC2CCCCC2)[C@@H](C)CN([C@@H](C)CO)C(=O)c2cc(NC(=O)Nc3ccccc3)ccc2O1,2.8,-10.6,12.0,7.1
COCC(=O)N(C[C@@H]1N[C@@H](CO)[C@@H]1c1ccc(C2=CCCCC2)cc1)C(C)C,4.5,-2.8,2.1,3.7
O=C(C[C@H]1CC[C@H](NS(=O)(=O)c2ccccc2)[C@H](CO)O1)NCc1ccncn1,-1.0,4.3,-2.1,2.2
C[C@H]1CN([C@@H](C)CO)C(=O)c2cc(NC(=O)Nc3ccc4c(c3)OCO4)ccc2O[C@H]1CN(C)S(=O)(=O)c1cn(C)cn1,-4.9,5.3,0.5,-0.4
C[C@@H]1CN([C@@H](C)CO)C(=O)Cc2cc(N(C)C)ccc2O[C@@H]1CN(C)Cc1ccccc1,-1.0,-1.1,-2.0,8.4
Cc1cccc(S(=O)(=O)N2C[C@@H](O)COC[C@@H]3O[C@@H](CC(=O)NCCCN4CCOCC4)CC[C@H]32)c1,-3.3,3.0,3.3,-0.7
C[C@H](CO)N1C[C@H](C)[C@H](CN(C)C(=O)CC2CC2)Oc2ncc(C#CCC3CCCC3)cc2C1=O,-3.3,-26.2,3.1,-3.0
Cc1ccc(S(=O)(=O)Nc2ccc(Nc3nccn4c(-c5ccccc5Oc5ccccc5)cnc34)cc2)cc1,2.4,18.4,2.0,-1.3
COCc1cccc(-c2csc(C(NC(C)=O)c3cccc(OC)c3)n2)c1 (configuration not stated),-4.4,-15.9,-5.7,-2.3
CC=Cc1ccc2n(c1=O)C[C@H]1[C@H](CO)[C@@H](C(=O)N3CCCCC3)[C@@H]2N1Cc1ccccn1 (mixture of isomers),1.0,3.8,-2.2,-1.3
O=C(CC1CC1)N1CC2(C1)[C@@H](c1ccccc1)[C@@H](CO)N2C(=O)c1cccnc1,4.0,10.3,-1.3,-0.5
CNC[C@@H]1OCCCC[C@H](C)Oc2ccc(NC(=O)Nc3ccc(C(F)(F)F)cc3)cc2C(=O)N([C@H](C)CO)C[C@@H]1C,-56.4,-77.5,-14.8,2.2
CO[C@H]1CN(C)C(=O)c2ccc(NC(=O)Nc3cccc(Cl)c3)cc2OC[C@@H](C)N(C(=O)Nc2c(C)noc2C)C[C@H]1C,-5.6,-2.5,6.6,5.5
CO[C@H]1CC[C@H]2CCOc3ccc(C#N)cc3C(=O)N(C)C[C@@H](C)C(=O)N(C)C[C@H]1O2,5.2,4.7,-4.8,-0.1
C[C@H](CO)N1C[C@H](C)[C@H](CN(C)S(=O)(=O)c2ccc(C#N)cc2)Oc2ncc(C#Cc3ccccc3)cc2C1=O,0.2,3.1,1.6,-1.4

# Record cards, as listed above.
# CNC[C@@H]1OCCCC[C@H](C)Oc2ccc(NC(=O)Nc3ccc(C(F)(F)F)cc3)cc2C(=O)N([C@H](C)CO)C[C@@H]1C across the screens: Ecoli rRNA inh: -56.4; Ecoli rRNA inh OD600: -77.5; Ecoli rRNA inh RFP: -14.8; MLL AF4-AF9 inh: 2.2
# Cc1ccc(S(=O)(=O)Nc2ccc(Nc3nccn4c(-c5ccccc5Oc5ccccc5)cnc34)cc2)cc1 across the screens: Ecoli rRNA inh: 2.4; Ecoli rRNA inh OD600: 18.4; Ecoli rRNA inh RFP: 2.0; MLL AF4-AF9 inh: -1.3

# (more compounds)
SMILES,Ecoli rRNA inh,Ecoli rRNA inh OD600,Ecoli rRNA inh RFP,MLL AF4-AF9 inh
CSc1ccc(C2=C/C(=C3/SC(=S)NC3=O)c3ccccc3O2)cc1,6.2,0.3,-5.8,3.2
O=C(NCC[C@H]1CC[C@H](NS(=O)(=O)Cc2ccccc2)[C@@H](CO)O1)C1CCCCC1,0.1,-1.1,-0.4,-0.6
O=C(Nc1ccccc1)N1CCCCN2[C@H](CO)[C@H](c3ccc(-c4ccncc4)cc3)[C@@H]2C1,-0.6,2.9,-2.6,-4.3
CCC(=O)N1[C@H](C(=O)NCc2ccc(F)cc2)[C@@H](CO)[C@@H]2Cn3c(ccc(C4=CCCCC4)c3=O)[C@@H]21,-4.2,-3.4,0.5,-1.1
C[C@H]1CN([C@@H](C)CO)C(=O)c2cccc(NS(=O)(=O)c3cn(C)cn3)c2O[C@H]1CN(C)Cc1ccc2c(c1)OCO2,1.3,0.5,-0.5,-1.3
C[C@H]1CN([C@@H](C)CO)C(=O)c2c(c3ccccc3n2C)-c2ccccc2CO[C@@H]1CN(C)Cc1ccc(Oc2ccccc2)cc1,5.0,6.7,-0.6,4.4
COc1cccc(C#Cc2ccc([C@H]3[C@@H](CO)N4C(=O)CN(C(C)=O)C[C@@H]34)cc2)c1,-0.1,-1.1,0.2,-3.4
C[C@@H]1CCCN1[C@H]1CS(=O)(=O)N[C@@H]1COCc1ccccc1,1.6,6.7,28.7,1.3
CN1C(=O)c2cc(NS(=O)(=O)c3ccc(Cl)cc3)ccc2OC[C@@H]2O[C@@H](CC(=O)O)CC[C@@H]21,-2.7,-3.1,3.0,0.5
O=C(NCC[C@@H]1CC[C@H](NC(=O)c2ccc3c(c2)OCO3)[C@@H](CO)O1)Nc1ccc(Cl)cc1,-39.2,-57.5,18.5,13.8
C[C@@H]1CN([C@H](C)CO)C(=O)c2cc(NC(=O)Nc3cccc4ccccc34)ccc2O[C@H]1CN(C)CC1CCCCC1,0.8,1.3,7.6,7.8
Cc1noc(C)c1NC(=O)Nc1cccc2c1O[C@H](CN(C)C(=O)Nc1c(C)noc1C)[C@H](C)CN([C@@H](C)CO)C2=O,1.1,4.3,-1.8,2.1
C[C@H](CO)N1C[C@H](C)[C@@H](CN(C)Cc2ccc(C(F)(F)F)cc2)Oc2c(NS(=O)(=O)c3cn(C)cn3)cccc2C1=O,-2.7,-0.3,-1.5,0.2
COc1ccc(NC(=O)N[C@@H]2CC[C@@H](CCn3cc(-c4ccccc4F)nn3)O[C@H]2CO)cc1,-0.9,2.4,-3.5,0.1
COc1cccc(S(=O)(=O)N[C@H]2C=C[C@@H](CC(=O)NCc3ccc(Cl)cc3)O[C@@H]2CO)c1,2.2,4.4,0.6,0.4
COc1ccc(NC(=O)Nc2ccc3c(c2)CC(=O)N([C@H](C)CO)C[C@H](C)[C@H](CN(C)S(=O)(=O)c2cn(C)cn2)O3)cc1,4.9,7.5,-1.9,-1.9
COCC(=O)N1CC(=O)N2[C@H](CO)[C@@H](c3ccc(C#CC(C)C)cc3)[C@@H]2C1,3.5,30.0,-3.6,-1.8
C[C@H]1CN([C@@H](C)CO)C(=O)c2cc(NC(=O)CCC(F)(F)F)ccc2O[C@H]1CN(C)S(=O)(=O)c1cn(C)cn1,4.8,11.1,-0.7,-10.6
CO[C@H]1CN(C)C(=O)c2cc(NC(=O)C3CCCCC3)ccc2OC[C@H](C)N(C)C[C@H]1C,2.3,0.3,0.1,0.2
C=CCn1c(SCC(=O)Nc2ccc(C(=O)O)cc2)nc2sc(C)c(C)c2c1=O,-0.5,-5.6,-0.8,-0.9
C[C@H](CO)N1C[C@H](C)[C@@H](CN(C)C(=O)Nc2ccccc2)Oc2ccc(N(C)C)cc2CC1=O,3.9,6.4,0.0,2.3
COC(=O)C[C@@H]1CC[C@H]2[C@@H](COc3ccc(NC(=O)Nc4cccc(Cl)c4)cc3C(=O)N2C)O1,-5.6,-25.6,5.5,0.5
CCN1C[C@@H]2[C@@H]3C(=O)N(C)C(=O)[C@@H]3[C@](Cc3ccccc3)(C1=O)N2C(=O)c1ccc(Cl)c(Cl)c1,-13.8,-8.6,-3.6,2.2
CO[C@@H]1CN(C)C(=O)c2ccc(NS(=O)(=O)c3ccccc3F)cc2OC[C@@H](C)N(S(C)(=O)=O)C[C@H]1C,5.3,2.0,-1.5,-3.3

# Brought forward from above: 4 compounds, then new ones.
SMILES,Ecoli rRNA inh,Ecoli rRNA inh OD600,Ecoli rRNA inh RFP,MLL AF4-AF9 inh
C[C@H](CO)N1C[C@H](C)[C@@H](CN(C)C(=O)Nc2ccccc2)Oc2ccc(N(C)C)cc2CC1=O,3.9,6.4,0.0,2.3
COC(=O)C[C@@H]1CC[C@H]2[C@@H](COc3ccc(NC(=O)Nc4cccc(Cl)c4)cc3C(=O)N2C)O1,-5.6,-25.6,5.5,0.5
CCN1C[C@@H]2[C@@H]3C(=O)N(C)C(=O)[C@@H]3[C@](Cc3ccccc3)(C1=O)N2C(=O)c1ccc(Cl)c(Cl)c1,-13.8,-8.6,-3.6,2.2
CO[C@@H]1CN(C)C(=O)c2ccc(NS(=O)(=O)c3ccccc3F)cc2OC[C@@H](C)N(S(C)(=O)=O)C[C@H]1C,5.3,2.0,-1.5,-3.3
CCCC#Cc1ccc2c(c1)O[C@@H](CN(C)Cc1ccccn1)[C@H](C)CN([C@H](C)CO)S2(=O)=O,-55.4,-75.1,-12.5,1.9
O=C(C[C@@H]1CC[C@H](NC(=O)Nc2cc(F)ccc2F)[C@H](CO)O1)Nc1ccccc1,-2.6,-7.4,0.4,0.6
C[C@@H]1CCCCO[C@@H](CN(C)C(=O)Nc2ccc3c(c2)OCO3)[C@H](C)CN([C@H](C)CO)C(=O)c2cc(NC(=O)Nc3ccc(F)cc3)ccc2O1,4.9,7.9,0.7,1.1
CCC(=O)N(C)C[C@H]1Oc2cc(C#CC3CC3)ccc2S(=O)(=O)N([C@@H](C)CO)C[C@H]1C,2.6,8.6,-2.1,-12.1
CC1(C(=O)NCc2ccccc2)CSCC(=O)N1Cc1cccc(C(F)(F)F)c1 (configuration not stated),-29.4,-31.4,-5.1,-1.0
C/C=C/c1ccc([C@H]2[C@@H](CO)N(Cc3cncnc3)C23CN(C(=O)CC)C3)cc1,1.0,-0.8,-2.3,-2.0
C[C@H](CO)N1C[C@H](C)[C@H](CN(C)S(=O)(=O)c2ccc(Cl)cc2)OCCCC[C@H](C)Oc2ccc(N(C)C)cc2C1=O,-9.9,-6.8,2.3,8.0

# Screens: PubChem BioAssay, Broad Institute
